T cruzi inh: blocks replication of Trypanosoma cruzi; hit rate 1.4% among 300,000; T. cruzi beta-gal in NIH3T3, luminescence, 90 h; inhibition, % (test concentration not listed);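 active = mean inhibition across valid replicates above about 55%, limit read from the data; inconclusive = mean below that limit but half or more replicates reach it; inactive = mean below it, under half of replicates reach it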;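 note: signal also drops with host cell toxicity which is not excluded here; 0% = plate median of DMSO wells and 100% = zero luminescence signal; higher percent means less beta-gal luminescence so fewer parasites; stock transfer was 50 nL into about 50 µL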
Calb FLC: affects C. albicans growth with fluconazole; C. albicans CaCi-2 (fluconazole-resistant clinical isolate) + fluconazole, Alamar Blue growth, 48 h; growth inhibition, % (concentration not given with the values); hit rate 0.57% among 300,000; AID 1979;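 active = most replicates above 75%; inconclusive = exactly half above 75%; inactive = most below 75%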;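 note: all wells also contain fluconazole at 8 µg/ml as a sub-toxic cotreatment; 0% = median of DMSO wells and 100% = median of geldanamycin control wells; wells of about 8 µL received 7.5 nL stock; the first replicate is given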
rRNA inh HTS: inhibitors of bacterial rRNA selective over humanized ribosomes. E. coli WT GFP vs humanized-ribosome RFP mutants, fluorescence, 24 h; hits give low values; DMSO median 0, no signal -100. GFP signal change (wild-type ribosome), % (test concentration not listed). hit rate 1.6% among 350,000;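 active = significant combined selectivity score with lowered wild-type GFP, culture density cut under 30%, mutant RFP and density less affected; inactive = any of these conditions unmet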; note: one replicate is shown; some compounds called inactive have numbers as strong as hits
Beta cell apopt: beta cell apoptosis inhibition. hit rate 0.8% among 300,000. protection from apoptosis, % (concentration not given with the values). INS-1E cytokine-induced death, ATP luminescence, 48 h; percent of positive-control rescue, neutral wells zero. AID 435005;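 active = all replicates at 75% or more, or half of them and the mean; inconclusive = half reach 75% but not the mean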;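 note: 0% = cytokine-treated negative control wells and 100% = positive control rescue; higher means more ATP so stronger rescue from cytokine killing; wells of about 40 µL received 100 nL stock; the first replicate is given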
ALR H2O2 inh: human ALR oxidase inhibition via reduced H2O2; P55789; purified ALR, DTT oxidation, H2O2 HRP-luminol luminescence; inhibition, % (concentration not given with the values); hit rate 3.8% among 290,000; AID 485317;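 active = mean and each replicate at 75% or more; inconclusive = only one of the two met; inactive = neither met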;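 note: stock transfer was 7.5 nL into about 7.5 µL; 0% = neutral wells and 100% = wells with inactivated enzyme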
Target sequence (P55789 whole entry, looked up): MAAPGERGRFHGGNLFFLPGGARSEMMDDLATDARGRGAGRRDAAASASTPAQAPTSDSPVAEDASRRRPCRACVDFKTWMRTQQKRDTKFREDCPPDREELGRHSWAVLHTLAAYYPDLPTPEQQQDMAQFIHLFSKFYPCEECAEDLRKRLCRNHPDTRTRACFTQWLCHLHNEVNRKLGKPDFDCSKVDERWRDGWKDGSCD
MLL AF4-AF9 inh: MLL-AF4/AF9 protein interaction inhibition; AlphaScreen, biotin-AF4 peptide binding to FLAG-AF9; P42568; AID 651704; inhibition, % at 10 µM; hit rate 0.47% among 350,000;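 active = every replicate reaching a set inhibition limit, whatever the replicate mean, cut at about 25% in these data; inconclusive = mean inhibition reaches that limit but some replicates miss it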;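 note: 0% = plate neutral control median and 100% = total signal loss; the record names both 10 and 1 µM as test concentration; the first replicate is given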
Target sequence (P42568 whole entry, looked up): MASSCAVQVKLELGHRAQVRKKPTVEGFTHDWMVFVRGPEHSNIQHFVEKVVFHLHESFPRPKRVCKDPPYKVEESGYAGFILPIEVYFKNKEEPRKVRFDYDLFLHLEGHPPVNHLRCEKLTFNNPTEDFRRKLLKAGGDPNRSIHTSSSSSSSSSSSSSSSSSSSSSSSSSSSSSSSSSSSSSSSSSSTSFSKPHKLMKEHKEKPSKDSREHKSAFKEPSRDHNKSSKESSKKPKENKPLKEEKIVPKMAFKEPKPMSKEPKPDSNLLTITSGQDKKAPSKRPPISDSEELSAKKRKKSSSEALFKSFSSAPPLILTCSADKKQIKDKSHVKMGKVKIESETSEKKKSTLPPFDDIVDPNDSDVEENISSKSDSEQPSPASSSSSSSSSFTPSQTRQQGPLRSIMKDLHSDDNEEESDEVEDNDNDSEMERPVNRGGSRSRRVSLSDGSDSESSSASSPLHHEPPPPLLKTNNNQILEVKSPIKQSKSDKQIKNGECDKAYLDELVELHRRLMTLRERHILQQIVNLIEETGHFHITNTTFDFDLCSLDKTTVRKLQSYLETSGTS
RanGTP-Imp inh: disruptors of Ran-importin-beta complex formation – biochemical, FRET, CFP-Ran, YFP-importin-beta, homogeneous, primary screen | inhibition, % (no concentration beside the values) | hit rate 1.1% among 300,000 | cell-free CFP-Ran/YFP-importin-beta FRET ratio;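 active = most replicates above 15%; inconclusive = exactly half above 15%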;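 note: 0% = DMSO wells and 100% = Ran loaded with GDP instead of GTP; wells of about 40 µL received 100 nL stock; the first replicate is given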
FGF22 binding: FGF22 (human) thermal shift binding; recombinant FGF22 thermal shift, SYPRO orange fluorescence; percent of sucrose octasulfate shift, DMSO zero; calls only at 9.99 µM; hit rate 1.5% among 340,000; AID 651658;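 active = melting point raised past a set limit in the mean and every replicate; inconclusive = no clear call; three in four hits are not shown here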
Target sequence (Q9HCT0 whole entry, looked up): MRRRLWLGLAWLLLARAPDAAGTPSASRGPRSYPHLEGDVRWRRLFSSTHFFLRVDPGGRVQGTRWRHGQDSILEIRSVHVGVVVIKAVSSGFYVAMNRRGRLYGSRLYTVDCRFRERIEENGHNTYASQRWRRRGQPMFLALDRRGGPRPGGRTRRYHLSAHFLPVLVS
rRNA inh HTS OD600: recorded beside rRNA inh HTS, whose call it bears; OD600 change, %; measured here: OD600 growth;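 optical density of the mix in the first replicate; 0 = DMSO median and -100 = no signal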
rRNA inh HTS RFP: second read-out of rRNA inh HTS, no call of its own (marks repeat the call); RFP signal change, %; measured here: RFP humanized mutant strains;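 first replicate; 0 = DMSO median and -100 = no signal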
An asterisk follows results filed as active; i = inactive; ? = inconclusive; . = not tested or not shown; & = joins results of further samples. The list is partial; rates above refer to the full screens.

SMILES | T cruzi inh | Calb FLC | rRNA inh HTS | rRNA inh HTS OD600 | rRNA inh HTS RFP | Beta cell apopt | ALR H2O2 inh | MLL AF4-AF9 inh | RanGTP-Imp inh | FGF22 binding
O=c1/c(=C/c2cccc3ccccc23)sc2ncnn12 | -2.9 | 4.8 | . | . | . | -8.7 | -16.6 | . | -2.9 | .
Fc1ccc(CSc2ncnc3ccccc23)cc1 | -16.1 | -15.3 | -13.5 | -16.6 | -1.8 | -3.1 | -8.5 | -4.0 | -0.9 | i
COc1ccc(CNc2ccc(-c3ccc(OC)cc3)nn2)cc1 | -0.9 | 32.1 | . | . | . | -3.8 | -11.4 | . | 1.7 | .
CCCC(C)NC(=O)Cc1ccccc1 (stereo not given) | -6.3 | -9.5 | 10.7 | 13.7 | 7.4 | -5.2 | -24.3 | -2.9 | -2.9 | i
COc1cc(CN2CCN(CCc3ccccc3)C(CCO)C2)cc(OC)c1 (stereo not given) | 14.9 | -4.2 | 7.1 | 5.4 | -5.3 | -2.1 | -14.2 | -1.7 | 1.3 | i
COc1cccc(CNC(=O)CCNS(=O)(=O)c2cccs2)c1 | 2.9 | -8.6 | . | . | . | 2.4 | . | . | -1.3 | .
CCCN1CCC(=O)N(CCSc2ccc(C)cc2)CC1 | 8.8 | -8.4 | 8.8 | 11.3 | 5.9 | . | . | -10.6 | 2.4 | i
COc1ccc(NC(=O)CN(C)C(=O)CCc2c[nH]c3ccccc23)cc1 | 3.9 | -21.0 | 4.8 | 2.3 | 3.5 | -2.1 | 23.0 | 2.0 | 1.7 | i
CCOC(=O)C1=C(C)N=C2SC(C)C(=O)N2C1c1ccc(OC(C)=O)c(OC)c1 (stereo not given) | 4.0 | -3.8 | . | . | . | -5.0 | 0.4 | . | 0.8 | .
Cc1cccc(OCC(=O)Nc2ccc(NC(=O)c3ccco3)c(C)c2)c1 | 12.1 | 0.3 | -10.4 | -3.1 | -4.1 | -2.0 | -13.4 | -2.7 | -3.0 | i
COc1ccc(CCCNC(=O)C2CCC(=O)N(Cc3ccc(Cl)cc3)C2)cc1 (stereo not given) | 5.9 | -1.2 | -20.1 | -20.8 | 1.2 | . | . | 1.0 | -18.7 | i
O=C(Cc1ccc(Cl)cc1)NNC1CC(=O)N(c2ccc3ccccc3c2)C1=O (stereo not given) | -15.4 | 8.2 | 5.7 | 13.4 | -3.2 | 3.7 | 0.4 | -6.6 | 5.0 | i
CCOc1ccc(CC(=O)NNC(=S)NC)cc1Br | -1.8 | -22.9 | -10.5 | 1.2 | 3.5 | -2.1 | 10.3 | -0.1 | -0.9 | i
CCCCn1c(N)c(N(CCOC)C(=O)CSc2nnc(-c3ccc(F)cc3)n2N)c(=O)[nH]c1=O | -5.9 | -2.2 | 10.3 | 9.7 | -0.9 | -2.3 | -4.2 | 3.4 | -0.3 | i
COc1ccccc1Oc1nc(C)c(C(C)=O)cc1C#N | -15.8 | -3.1 | 8.5 | -0.9 | -3.9 | . | 0.6 | -1.7 | 1.1 | .
CCCCOc1ccc(-c2c(C#N)c(N)[nH]c(=S)c2C#N)cc1 | -19.3 | -3.3 | -7.7 | -3.1 | -0.6 | 10.0 | 87.9* | 0.7 | 10.0 | i
COc1ccc2c3n(nc2c1)CCN=C3c1ccc(Cl)cc1 | . | . | -2.7 | 6.1 | 0.8 | -9.1 | -10.6 | 3.1 | . | i
CC(C)(C)OC(=O)N/N=C\c1ccc[nH]1 | -4.5 | 4.4 | 22.1 | 4.7 | 1.0 | 0.4 | 2.3 | -0.9 | 12.3 | i
CN(C)S(=O)(=O)Oc1cccc(C(=O)Nc2ccc(Cl)c(Cl)c2)c1 | 20.5 | 91.8* | . | . | . | -12.0 | -4.2 | . | -6.2 | .
CN(C)c1ccc(/C=N/n2c(COc3ccccc3)n[nH]c2=S)cc1 | 5.6 | 7.0 | 0.9 | 5.8 | -0.6 | 1.3 | . | -7.4 | 0.0 | i
Cc1nn(-c2ccccc2)c(N)c1N=O | -17.8 | -0.1 | -16.1 | 1.4 | -0.6 | -1.7 | -5.7 | 1.2 | -1.2 | i
COC(=O)c1cc(S(=O)(=O)Nc2c(C)cccc2C)cn1C | 1.2 | -6.7 | -2.2 | 0.0 | 2.5 | -5.5 | -3.1 | -1.6 | -2.0 | i
CC(=O)Nc1ccc(S(=O)(=O)Nc2nc3ccccc3nc2N2CCOCC2)cc1 | . | . | 1.7 | 7.5 | 2.0 | -9.7 | . | 0.1 | . | i
O=C(O)CSc1nc2ccccc2n1Cc1ccccc1 | -14.4 | 3.0 | -7.3 | -9.3 | -1.3 | -5.6 | 0.7 | -0.9 | 2.1 | i
CC(=O)Nc1ccc(S(=O)(=O)N2CCC(NC(=O)c3ccccc3)CC2)cc1 | -0.3 | 5.6 | 9.2 | 16.9 | 1.9 | 1.8 | -14.7 | 2.6 | 0.3 | .
Cc1cc(C(=O)CSc2nnnn2-c2ccc(O)cc2)c(C)n1C | -9.2 | 20.0 | -26.4* | -19.1* | 0.2* | -8.2 | 88.9* | 2.8 | ? | i
O=C(NC(Cc1ccccc1)C(=O)O)/C(=C/c1ccccc1)NC(=O)c1cccc(Br)c1 (stereo not given) | -5.8 | 9.2 | 1.6 | 4.0 | 1.4 | -3.6 | 33.9 | -7.1 | 4.1 | i
Cc1sc2ncnc(N3CCOCC3)c2c1C | -5.0 | -6.5 | . | . | . | -2.6 | -3.7 | . | -2.5 | .
CC(C)NC(=O)Nc1ccc2c(c1)C(=O)N([C@H](C)CO)C[C@H](C)[C@@H](CN(C)S(C)(=O)=O)O2 | . | . | 3.0&1.9 | 8.7&10.2 | -0.9&-2.5 | 0.4 | -0.4 | -4.6&-5.9 | . | i
O=C(CCN1C(=O)/C(=C/C=C/c2ccccc2)SC1=S)Nc1ccccn1 | 19.0 | -6.0 | 0.5 | 8.4 | 16.5 | 26.9 | -3.5 | -0.9 | -3.9 | .
COc1ccc(C2CC(c3cccs3)=NN2C(=O)COC(=O)c2cncc(Br)c2)cc1OC (stereo not given) | 4.1 | -13.5 | 13.1 | 7.9 | 7.0 | -6.7 | -2.9 | 9.4 | -2.4 | i
COc1ccc(NC(=O)CN(C)C(=O)c2sc3ccccc3c2Cl)cc1 | -10.1 | 1.1 | -3.7 | -7.3 | 0.9 | . | -11.6 | -2.7 | 4.0 | i
COc1ccc(CNC(=O)COC(=O)CCOc2ccc(C)cc2)cc1OC | -4.7 | 2.3 | 11.0 | -1.0 | 4.2 | 0.2 | 0.0 | -2.1 | -0.8 | i
COc1cccc(CC(=O)N[C@@H](CCSC)c2nc3ccccc3[nH]2)c1 | -0.9 | 7.7 | 1.3 | -23.0 | 0.9 | -10.0 | -0.5 | 0.5 | 0.9 | i
O=C(N/N=C\c1ccc(Cl)cc1)c1sccc1-n1cccc1 | -13.0 | 28.3 | . | . | . | -1.4 | . | . | 4.3 | .
O=C(O)COCc1nc2ccccc2[nH]1 | -12.2 | 2.5 | . | . | . | -2.3 | -6.1 | . | 4.5 | .
COc1ccc(NC2CCCN(C(=O)c3cccnc3)C2)cc1 (stereo not given) | -13.2 | 8.7 | 18.1 | 13.4 | 2.4 | . | 96.8* | -5.2 | ? | i
CCOC(=O)C1CCCN(S(=O)(=O)c2cc(C(=O)OC)n(C)c2)C1 (stereo not given) | 3.1 | 10.0 | 11.2 | 11.4 | -1.0 | 0.5 | -1.8 | 1.0 | -3.4 | i
COc1cc(NC(=O)c2ccnc(N)c2)cc(C(=O)Nc2cccc(C(F)(F)F)c2)c1 | -13.8 | 0.3 | -6.6 | -21.8 | -3.9 | 1.2 | 0.0 | 9.5 | 0.8 | i
CCCC(O)(CCN(C)C)c1ccc(OC)cc1 (stereo not given) | 12.3 | -1.8 | . | . | . | -9.3 | 3.2 | . | -3.4 | .
Cc1ccccc1CSCCNC(=O)CN(c1ccc2c(c1)OCO2)S(C)(=O)=O | 7.1 | -8.0 | . | . | . | 1.4 | 6.2 | . | -2.0 | .
COc1cccc2cc3c(=O)n(-c4ccccc4)nc-3oc12 | -11.5 | -0.6 | 7.4 | 18.5 | 3.9 | 0.4 | . | 7.3 | 3.6 | i
COc1cc(C(=O)N(Cc2ccc(F)cc2)C2CCS(=O)(=O)C2)cc(OC)c1OC (stereo not given) | 8.5 | -19.8 | . | . | . | 4.2 | -11.8 | . | -0.9 | .
CCOC(=O)CCCCCC(=O)Nc1ccc2c(c1)CC(=O)N([C@H](C)CO)C[C@H](C)[C@H](CN(C)S(=O)(=O)c1ccc(OC)cc1)O2 | . | . | 10.8 | -5.1 | 2.8 | -8.5 | -1.7 | -2.0 | . | i
O=C(COC(=O)C1=COCCO1)Nc1cccc(S(=O)(=O)N2CCOCC2)c1 | 3.8 | -1.7 | 7.5 | 5.6 | -1.0 | -2.8 | -5.8 | 0.7 | -1.9 | i
O=C(NCc1cccc(CNC(=O)Nc2cccc(O)c2)c1)Nc1cccc(O)c1 | -1.2 | -6.7 | 6.2 | 5.5 | -5.6 | -8.3 | . | 0.3 | -4.0 | i
Cc1ccc(-n2nc3c(c2NC(=O)c2ccc4c(c2)OCO4)CS(=O)(=O)C3)cc1C | -7.0 | 22.2 | -2.9 | 0.0 | 1.9 | 0.4 | 0.1 | -5.0 | 0.1 | i

7 of the compounds above, tab-delimited.
SMILES	T cruzi inh	Calb FLC	rRNA inh HTS	rRNA inh HTS OD600	rRNA inh HTS RFP	Beta cell apopt	ALR H2O2 inh	MLL AF4-AF9 inh	RanGTP-Imp inh	FGF22 binding
CCCC(O)(CCN(C)C)c1ccc(OC)cc1 (stereo not given)	12.3	-1.8	.	.	.	-9.3	3.2	.	-3.4	.
Cc1ccccc1CSCCNC(=O)CN(c1ccc2c(c1)OCO2)S(C)(=O)=O	7.1	-8.0	.	.	.	1.4	6.2	.	-2.0	.
COc1cccc2cc3c(=O)n(-c4ccccc4)nc-3oc12	-11.5	-0.6	7.4	18.5	3.9	0.4	.	7.3	3.6	i
COc1cc(C(=O)N(Cc2ccc(F)cc2)C2CCS(=O)(=O)C2)cc(OC)c1OC (stereo not given)	8.5	-19.8	.	.	.	4.2	-11.8	.	-0.9	.
CCOC(=O)CCCCCC(=O)Nc1ccc2c(c1)CC(=O)N([C@H](C)CO)C[C@H](C)[C@H](CN(C)S(=O)(=O)c1ccc(OC)cc1)O2	.	.	10.8	-5.1	2.8	-8.5	-1.7	-2.0	.	i
O=C(COC(=O)C1=COCCO1)Nc1cccc(S(=O)(=O)N2CCOCC2)c1	3.8	-1.7	7.5	5.6	-1.0	-2.8	-5.8	0.7	-1.9	i
O=C(NCc1cccc(CNC(=O)Nc2cccc(O)c2)c1)Nc1cccc(O)c1	-1.2	-6.7	6.2	5.5	-5.6	-8.3	.	0.3	-4.0	i
